Source: PubChem BioAssay (Broad Institute)
FGF22 binding – FGF22 (human) thermal shift binding | Q9HCT0 | recombinant FGF22 thermal shift, SYPRO orange fluorescence; percent of sucrose octasulfate shift, DMSO zero | calls only at 9.99 µM | 340,000 tested, 1.5% active;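 active = melting point raised past a set limit in the mean and every replicate; three in four hits are not shown here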
Target sequence (Q9HCT0 whole entry, looked up): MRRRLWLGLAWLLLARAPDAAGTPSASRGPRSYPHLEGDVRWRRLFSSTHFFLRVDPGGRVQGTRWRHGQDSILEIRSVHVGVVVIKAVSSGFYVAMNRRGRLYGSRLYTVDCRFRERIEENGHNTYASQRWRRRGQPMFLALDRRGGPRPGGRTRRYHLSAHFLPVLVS
MLL AF4-AF9 inh – blocks AF4 peptide binding to human AF9. P42568. AlphaScreen, biotin-AF4 peptide binding to FLAG-AF9. inhibition, % at 10 µM. 350,000 tested, 0.47% active. AID 651704;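 active = every replicate reaching a set inhibition limit, whatever the replicate mean, cut at about 25% in these data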;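 note: 0% = plate neutral control median and 100% = total signal loss; the record names both 10 and 1 µM as test concentration; the first replicate is given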
Target sequence (P42568 whole entry, looked up): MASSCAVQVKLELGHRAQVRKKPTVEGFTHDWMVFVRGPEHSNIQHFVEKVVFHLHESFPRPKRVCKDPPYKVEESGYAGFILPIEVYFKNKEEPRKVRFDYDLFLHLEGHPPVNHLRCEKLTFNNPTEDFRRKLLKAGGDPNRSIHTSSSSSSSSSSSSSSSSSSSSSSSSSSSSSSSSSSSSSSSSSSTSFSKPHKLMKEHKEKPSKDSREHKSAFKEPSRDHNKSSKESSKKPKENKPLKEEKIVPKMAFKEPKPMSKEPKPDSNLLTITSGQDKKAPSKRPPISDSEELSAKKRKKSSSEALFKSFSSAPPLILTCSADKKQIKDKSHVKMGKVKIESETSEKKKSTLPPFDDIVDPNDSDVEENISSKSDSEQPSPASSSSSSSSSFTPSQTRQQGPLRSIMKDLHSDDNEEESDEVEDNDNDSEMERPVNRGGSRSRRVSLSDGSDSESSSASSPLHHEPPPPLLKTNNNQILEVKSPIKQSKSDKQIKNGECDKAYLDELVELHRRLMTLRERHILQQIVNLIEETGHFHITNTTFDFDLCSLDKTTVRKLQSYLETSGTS
Ecoli rRNA inh – selective bacterial rRNA inhibition in E. coli; E. coli WT GFP vs humanized-ribosome RFP mutants, fluorescence, 24 h; active compounds read low; DMSO median 0, no signal -100; GFP signal change (wild-type ribosome), % (test concentration not listed); 350,000 tested, 1.6% active; AID 720706;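 active = significant combined selectivity score with lowered wild-type GFP, culture density cut under 30%, mutant RFP and density less affected; inactive = any of these conditions unmet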; note: one replicate is shown; some compounds called inactive have numbers as strong as hits
Ecoli rRNA inh OD600 – further read-out of Ecoli rRNA inh, marked with its call; OD600 change, %; measured here: OD600 growth;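 optical density of the mix in the first replicate; 0 = DMSO median and -100 = no signal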
Ecoli rRNA inh RFP – recorded beside Ecoli rRNA inh, whose call it bears; RFP signal change, %; measured here: RFP humanized mutant strains;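 first replicate; 0 = DMSO median and -100 = no signal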
Numbers without * were called inactive; i = inactive; · = not tested or not shown; + = active, no number; & = joins results of further samples. A portion of the library; rates above refer to the full screens.

SMILES | FGF22 binding | MLL AF4-AF9 inh | Ecoli rRNA inh | Ecoli rRNA inh OD600 | Ecoli rRNA inh RFP
O=C(N[C@@H]1CC[C@@H](CC(=O)N2CCN(c3ccccc3)CC2)O[C@@H]1CO)c1ccncc1 | i | -11 | 1 | -7 | -0.5
C[C@H](CO)N1C[C@H](C)[C@@H](CN(C)CC2CC2)Oc2ccc(NC(=O)NC3CCCCC3)cc2CC1=O | i | 5.5 | -1 | -4 | -1.0
N#Cc1c(Cl)cccc1N1CCSCC1 | i | -3.7 | -22 | -28 | -9.5
O=c1[nH]cnc2c1ncn2-c1ccc(N(CCO)CCO)cc1 | i | -1.7 | 9 | 13 | 0.9
COc1ccc(S(=O)(=O)N(C)C[C@@H]2Oc3c(NC(=O)CCCCCC(=O)Nc4ccccc4N)cccc3C(=O)N([C@H](C)CO)C[C@H]2C)cc1 | i | -2.4 | -3 | -12 | 2.6
O=C(N[C@@H]1CC[C@@H](CCNS(=O)(=O)c2ccccc2)O[C@@H]1CO)c1cccc(F)c1 | i | 0.3 | 0 | 0 | 0.4
COC(=O)C1CCC(=O)N1C(c1ccc(OC)cc1)c1cc(OC)c(OC)c(OC)c1 (configuration not stated) | i | -2.1 | 8 | 13 | -1.3
CCOC(=O)CCCCCC(=O)Nc1ccc2c(c1)C(=O)N([C@H](C)CO)C[C@@H](C)[C@@H](CN(C)C(=O)CCC(F)(F)F)OCCCC[C@H](C)O2 | i | 14 | 4 | 17 | 9.6
Cc1ccc(S(=O)(=O)N2CCOCC2)cc1NC(=O)CNCc1ccccc1Cl | i | 1.6 | -5 | 0 | 0.2
CSC(=NS(=O)(=O)c1ccccc1)NNC(=O)c1c(-c2c(Cl)cccc2Cl)noc1C | i | -2.3 | -21* | -16* | 0.5*
C[C@H](CO)N1C[C@H](C)[C@@H](CN(C)C(=O)Nc2cc(F)ccc2F)Oc2cc(-c3cccc(C#N)c3)ccc2S1(=O)=O | i | 2.0 | -6 | -15 | 2.9
Cc1ccc(S(=O)(=O)N(C)C[C@@H]2Oc3ccc(NC(=O)Cc4ccccc4)cc3C(=O)N([C@@H](C)CO)C[C@H]2C)cc1 | i | -0.3 | -3 | -5 | 2.3

Nothing new here: an excerpt of the list.
SMILES | FGF22 binding | MLL AF4-AF9 inh | Ecoli rRNA inh | Ecoli rRNA inh OD600 | Ecoli rRNA inh RFP
C[C@H](CO)N1C[C@H](C)[C@@H](CN(C)C(=O)Nc2cc(F)ccc2F)Oc2cc(-c3cccc(C#N)c3)ccc2S1(=O)=O | i | 2.0 | -6 | -15 | 2.9
Cc1ccc(S(=O)(=O)N(C)C[C@@H]2Oc3ccc(NC(=O)Cc4ccccc4)cc3C(=O)N([C@@H](C)CO)C[C@H]2C)cc1 | i | -0.3 | -3 | -5 | 2.3

The list goes on.
SMILES | FGF22 binding | MLL AF4-AF9 inh | Ecoli rRNA inh | Ecoli rRNA inh OD600 | Ecoli rRNA inh RFP
O=C(Nc1ccccc1)N1CCCCN2[C@H](C1)[C@H](c1ccc(-c3ccncc3)cc1)[C@@H]2CO | i | -2.8 | -2 | 3 | -1.0
Cc1ccc(-c2ccccc2[C@H]2[C@@H](C#N)N(C(=O)c3cccc(F)c3)[C@H]2CO)cc1 | i | -9.6 | -9 | -51 | -3.2
COCC(=O)N1C[C@@H](C)[C@H](OC)CN(C)C(=O)c2cc(NC(=O)Nc3cccc(F)c3)ccc2OC[C@@H]1C | i | 0.6 | -7 | -1 | -1.4
Cc1cc(O)c2c(c1)CC1C3CCC4CC(=O)CCC4(C)C3CC(=O)C21C (configuration not stated) | i | -0.1 | 8 | -6 | 3.8
CN1CCN(C(=O)C[C@H]2CC[C@H]3[C@H](COc4ccc(NC(=O)C5CCCC5)cc4C(=O)N3C)O2)CC1 | i | 3.0 | 5 | 21 | -1.1
COC(=O)C1CC(c2ccccc2)N(c2ccccc2)O1 (configuration not stated) | i | -1.7 | -6 | -7 | 0.3
O=C(C[C@@H]1CC[C@H]2[C@@H](COC[C@@H](O)CN2C(=O)Cc2ccccc2)O1)NC1Cc2ccccc2C1 | i | -1.6 | -1 | -10 | -4.8
CCC(=O)N1C[C@@H](C)[C@H](OC)CN(C)C(=O)c2cc(NS(=O)(=O)CC)ccc2OC[C@@H]1C | i | -2.1 | 2 | -2 | 1.6
CNc1n[nH]c(-c2ccccc2)n1 | i | -1.5 | 8 | 15 | 0.7
CC(C)NC(=O)Nc1ccc2c(c1)C(=O)N([C@@H](C)CO)C[C@@H](C)[C@@H](CN(C)C(=O)c1ccncc1)OCCCC[C@H](C)O2 | i | -7.1 | -1 | 6 | -1.0
O=C(N[C@H]1CC[C@H](CCn2cc(-c3ccccc3F)nn2)O[C@H]1CO)c1ccc2c(c1)OCO2 | i | -15 | -1 | -3 | 1.0
O=C(C[C@@H]1CC[C@@H]2[C@H](COC[C@H](O)CN2S(=O)(=O)c2ccc(F)cc2)O1)NCC1CCCCC1 | i | 8.6 | -4 | 0 | -2.6
C[C@@H]1CN([C@@H](C)CO)C(=O)CCCn2nncc2CO[C@H]1CN(C)C(=O)C1CC1 | i | -0.1&-0.5 | 1&2 | 1&5 | -4.0&-2.8
Cc1cccc(CN2CCN(C3CN(Cc4ccc(F)cc4)S(=O)(=O)C3)CC2)c1 (configuration not stated) | i | -2.3 | -1 | -4 | -5.1
CO[C@@H]1CN(C)C(=O)c2ccc(NS(=O)(=O)CC(F)(F)F)cc2OC[C@@H](C)NC[C@@H]1C | i | -1.6 | 0 | -5 | 0.3
CCC(=O)Nc1ccc2c(c1)C(=O)N(C)[C@H]1CC[C@@H](CC(=O)NCc3ccc(OC)cc3)O[C@@H]1CO2 | i | 2.3 | 2 | -1 | -2.4
COCC#Cc1ccc2c(c1)O[C@@H](CN(C)S(=O)(=O)c1cccc(OC)c1)[C@@H](C)CN([C@H](C)CO)S2(=O)=O | i | -0.8 | -9 | -13 | 0.6
C/C=C/c1ccc([C@@H]2[C@@H](CO)N(C(C)=O)[C@H]2CNC(=O)CC2CC2)cc1 | i | 0.4 | 3 | 4 | 2.0
CO[C@H]1CC[C@@H]2CCN(C)C(=O)C[C@H](c3ccccc3)CN(C)C(=O)c3cccc(C#N)c3OC[C@H]1O2 | i | 3.7 | -1 | -2 | -3.4
Cc1ccc(S(=O)(=O)Nc2cccc3c2O[C@H](CN(C)S(=O)(=O)c2cccs2)[C@H](C)CN([C@H](C)CO)C3=O)cc1 | i | -0.3 | -1 | -8 | -3.8
CCCC#Cc1cnc2c(c1)C(=O)N([C@@H](C)CO)C[C@@H](C)[C@H](CN(C)C(=O)Nc1ccc(OC)cc1)O2 | i | -1.7 | 0 | -6 | 0.3
O=S(=O)(N[C@H]1CC[C@H](CCn2cc(-c3cccnc3)nn2)O[C@@H]1CO)c1ccc(Cl)cc1 | i | -0.6 | -1 | -3 | -0.5
COC(=O)C[C@@H]1C[C@H]2c3cc(NC(=O)Nc4ccccc4)ccc3O[C@H]2[C@@H](CO)O1 | i | 1.4 | 5 | 0 | 0.2
COC(=O)c1cc2c(c3c4cc(F)ccc4n(S(=O)(=O)c4ccc(C)cc4)c13)C(=O)N(C)C2 | i | 0.1 | 3 | -9 | 11
COc1cccc(CNC(=O)[C@@H]2CCCN2C(=O)[C@H]2CCCCN2C(=O)c2cccc(OC)c2)c1 | i | 0.2 | 1 | -1 | 1.7
C[C@H](CO)N1C[C@H](C)[C@H](CN(C)S(=O)(=O)c2cn(C)cn2)Oc2ccc(NC(=O)Cc3cn(C)c4ccccc34)cc2C1=O | i | 0.5 | -2 | -1 | -1.5
CCCNC(=O)Nc1ccc2c(c1)OC[C@H](C)N(C(=O)CC)C[C@H](C)[C@H](OC)CN(C)C2=O | i | -3.6 | 1 | 1 | -1.2
CN(C)CCCNC(=O)C[C@H]1CC[C@@H]2[C@H](COc3ccc(NC(=O)C4CCC4)cc3C(=O)N2C)O1 | i | 0.1 | 2 | -3 | -1.0
COc1ccc(-c2cnc3c(c2)C(=O)N([C@H](C)CO)C[C@H](C)[C@H](CN(C)C(=O)Nc2ccccc2)O3)cc1 | i | -0.1 | 4 | 9 | -1.9
C[C@H](CO)N1C[C@H](C)[C@H](CN(C)C(=O)C2CCC2)Oc2ncc(-c3cccnc3)cc2C1=O | i | -4.6 | 3 | 5 | 1.2
CC(=O)N1CCCCN2[C@H](CO)[C@@H](c3ccc(-c4ccncc4)cc3)[C@H]2C1 | i | 0.2 | 5 | 15 | -1.2
N#C[C@@H]1[C@@H](c2ccc(C#Cc3ccccc3F)cc2)[C@@H](CO)N1C(=O)C1CCC1 | i | -3.1 | 1 | 1 | 0.1
CC(C)NC(=O)Nc1ccc2c(c1)C(=O)N([C@@H](C)CO)C[C@@H](C)[C@@H](CN(C)C(=O)C1CCCCC1)OCCCC[C@@H](C)O2 | i | 4.3 | 0 | -6 | 0.0
C[C@@H]1CN([C@@H](C)CO)C(=O)c2cc(NC(=O)c3ccccc3)ccc2O[C@@H](C)CCCCO[C@H]1CN(C)Cc1ccncc1 | i | -0.5 | -1 | 2 | -1.8
C[C@H](CO)N1C[C@H](C)[C@@H](CN(C)CC2CC2)Oc2ccc(NS(=O)(=O)c3cccs3)cc2C1=O | + | -0.6 | 4 | 16 | 0.2
COc1cccc(-c2cnc3c(c2)C(=O)N([C@H](C)CO)C[C@H](C)[C@@H](CN(C)Cc2ccc(C(=O)O)cc2)O3)c1 | i | -1.9 | 3 | 6 | 0.1

Only Ecoli rRNA inh RFP (4 entries from above):
canonical_smiles,Ecoli rRNA inh RFP
COc1ccc(-c2cnc3c(c2)C(=O)N([C@H](C)CO)C[C@H](C)[C@H](CN(C)C(=O)Nc2ccccc2)O3)cc1,-1.9
C[C@H](CO)N1C[C@H](C)[C@H](CN(C)C(=O)C2CCC2)Oc2ncc(-c3cccnc3)cc2C1=O,1.2
CC(=O)N1CCCCN2[C@H](CO)[C@@H](c3ccc(-c4ccncc4)cc3)[C@H]2C1,-1.2
N#C[C@@H]1[C@@H](c2ccc(C#Cc3ccccc3F)cc2)[C@@H](CO)N1C(=O)C1CCC1,0.1

The listing continues.
SMILES | FGF22 binding | MLL AF4-AF9 inh | Ecoli rRNA inh | Ecoli rRNA inh OD600 | Ecoli rRNA inh RFP
Cc1ccc(S(=O)(=O)N2C[C@H]3[C@H]4C(=O)N(Cc5ccccc5)C(=O)[C@H]4CC(=O)[C@H]3[C@@H]2c2ccccc2F)cc1 | · | -2.0 | 5 | 0 | -0.5
CN1CCN(c2ccc(S(=O)(=O)N3CCOCC3)cc2NC(=O)COc2ccc(C#N)cc2)CC1 | i | 1.4 | 6 | 6 | -0.1
Cc1cc(C(=O)Nc2cccc3c2O[C@H](CN(C)C(=O)Nc2ccc(F)cc2)[C@@H](C)CN([C@@H](C)CO)C3=O)n(C)n1 | i | -1.6 | 0 | 1 | -1.0
C[C@H](CO)N1C[C@H](C)[C@H](CN(C)Cc2ccncc2)Oc2c(NS(=O)(=O)c3cccs3)cccc2C1=O | i | -1.6 | 0 | 3 | -0.1
C[C@@H]1CN([C@H](C)CO)C(=O)c2cc(NC(=O)Nc3ccc(C(F)(F)F)cc3)ccc2O[C@@H](C)CCCCO[C@@H]1CN(C)C(=O)C1CCCCC1 | i | -0.2 | 0 | 6 | 0.3
C[C@@H]1CN([C@H](C)CO)C(=O)Cc2cc(NC(=O)Nc3ccccc3)ccc2O[C@@H]1CN(C)Cc1ccc(Cl)c(Cl)c1 | i | -0.5 | 7 | 11 | -2.5
COCCN(C[C@H]1[C@H](c2ccccc2)[C@@H](CO)N1C(C)=O)C(=O)c1ccncc1 | i | -1.0 | 3 | 8 | -2.4
CCCC#Cc1ccc2c(c1)O[C@H](CN(C)Cc1ccc3c(c1)OCO3)[C@@H](C)CN([C@@H](C)CO)S2(=O)=O | i | -2.8 | 1 | -3 | -0.2
COc1ccc2c3c(n(C)c2c1)[C@@H](CO)N(Cc1ccccc1)CC31CCN(C)CC1 | i | 8.3 | 1 | 10 | 0.7
Cc1ccc(-c2csc(C(O)c3ccc(F)c(F)c3)n2)cc1C (configuration not stated) | i | -4.3 | -61 | -78 | -21
COc1cccc(CNC(=O)[C@H]2[C@H](CO)[C@H]3Cn4c(ccc(-c5ccncc5)c4=O)[C@H]3N2C)c1 | i | 1.2 | -2 | -1 | -0.7
CO[C@@H]1CN(C)C(=O)c2cc(NC(=O)c3cc(C)on3)ccc2OC[C@H](C)N(C(C)=O)C[C@H]1C | i | -0.4 | 0 | 2 | 0.3
C[C@@H]1CN([C@@H](C)CO)C(=O)c2cccc(NC(=O)CCCCCC(=O)Nc3ccccc3N)c2O[C@H]1CN(C)C(=O)NC1CCCCC1 | i | 3.4 | 0 | 6 | -1.3
C[C@H]1CN([C@@H](C)CO)C(=O)c2cc(C#CCN(C)C)cnc2O[C@@H]1CN(C)Cc1cccc(C(=O)O)c1 | i | -2.3 | 3 | 6 | -1.3
COc1ccc(NC(=O)N(C)C[C@@H]2Oc3ccc(NC(=O)Cn4cnnn4)cc3C(=O)N([C@@H](C)CO)C[C@@H]2C)cc1 | i | -1.5 | 2 | 0 | 2.0
C[C@H](CO)N1C[C@H](C)[C@H](CN(C)S(C)(=O)=O)Oc2c(NC(=O)c3nc4ccccc4s3)cccc2C1=O | i | 0.8 | -8 | -19 | 2.4
COc1cc(C2c3cc(O)c(OC)cc3CC(C(=O)O)C2CO)ccc1O (configuration not stated) | i | 0.4 | -3 | 0 | -0.8
